GALR2 agonist = activates the human galanin receptor 2; O43603; GALR2-expressing cells, agonist activation read-out; activation, %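 (tested at 5 µM)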; actives 0.48% (n = 140,000);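 active means above mean plus 3 SD of all compounds, about 5% in these data, not always enough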;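 further: 0% = vehicle buffer wells and 100% = reference agonist at full effect; tested in CHO reporter cells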
Target sequence (O43603 whole entry, looked up): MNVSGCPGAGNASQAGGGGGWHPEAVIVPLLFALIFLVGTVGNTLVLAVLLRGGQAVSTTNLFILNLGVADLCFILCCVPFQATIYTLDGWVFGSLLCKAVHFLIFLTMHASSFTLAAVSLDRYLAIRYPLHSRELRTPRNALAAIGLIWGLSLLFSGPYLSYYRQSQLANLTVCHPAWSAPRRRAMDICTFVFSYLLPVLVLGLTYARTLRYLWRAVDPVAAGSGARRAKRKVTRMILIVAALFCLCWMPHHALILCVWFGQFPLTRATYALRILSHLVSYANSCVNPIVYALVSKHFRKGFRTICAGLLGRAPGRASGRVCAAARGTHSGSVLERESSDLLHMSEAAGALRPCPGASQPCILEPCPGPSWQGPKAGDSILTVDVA
HSV replic up = increases HSV replication in cells. maximum fold increase. AID 1956. actives 0.005% (n = 220,000). HSV replication augmentation in cells, fold increase;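 active means peak rise of 1.5-fold or more in the series; inconclusive means self-fluorescent or not available for retest; tested in PC3 cells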;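 further: first round at 10 µM; read as green reporter fluorescence; hits show the peak of a series up to 25 µM; 1 = signal of infected wells without compound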
PKD1 inh = inhibitors of human PKD1 kinase; Q15139; PKD1 kinase fluorescence polarization assay; inhibition, %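 (about 10 µM by stock and volumes)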; actives 0.056% (n = 200,000);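 active means inhibition of 50% or more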;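 further: controls were vehicle for no effect and a reference inhibitor for full effect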
RGS16-Gao = modulates binding between human RGS16 and Galphao | binding response (% of control), % at 10 µM | bead-based flow cytometry RGS16-Galphao binding, fluorescence; actives lie on both sides | O15492+P09471 | actives 0.38% (n = 220,000) | AID 1441;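 active means below 25% or above 175%, edge rows of some plates excepted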;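 further: Galphao activated by GDP with aluminum fluoride before binding; 100% = wells without compound and 0% = beads without RGS; some results beyond the cut were filed as inactive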
Target sequence (O15492 whole entry, looked up): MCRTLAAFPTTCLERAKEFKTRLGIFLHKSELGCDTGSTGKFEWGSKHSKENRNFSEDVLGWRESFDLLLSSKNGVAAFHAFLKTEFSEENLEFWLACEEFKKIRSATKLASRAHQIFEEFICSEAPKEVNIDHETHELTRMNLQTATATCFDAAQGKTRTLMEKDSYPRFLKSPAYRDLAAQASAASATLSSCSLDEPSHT
Target sequence (P09471 whole entry, looked up): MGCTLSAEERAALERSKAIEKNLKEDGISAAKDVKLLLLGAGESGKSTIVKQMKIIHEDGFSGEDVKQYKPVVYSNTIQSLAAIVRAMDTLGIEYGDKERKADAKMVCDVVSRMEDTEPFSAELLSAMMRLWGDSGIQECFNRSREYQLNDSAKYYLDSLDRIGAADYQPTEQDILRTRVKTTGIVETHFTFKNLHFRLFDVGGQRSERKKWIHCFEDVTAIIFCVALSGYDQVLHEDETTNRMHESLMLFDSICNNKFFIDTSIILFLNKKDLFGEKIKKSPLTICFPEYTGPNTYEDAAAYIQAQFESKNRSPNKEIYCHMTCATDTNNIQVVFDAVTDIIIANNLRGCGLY
INS promoter inh = TRM-6 insulin promoter activity inhibition; TRM-6 cells (human fetal islet line), insulin promoter-eGFP reporter, imaging; reporter expression induced with tamoxifen; inhibition, % at 2 µM; actives 0.9% (n = 130,000); AID 1273;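 active means inhibition above the mean plus 3 SD, with well images judged a real hit on visual review, cut at about 60% in these data, passing the limit was not always enough; inconclusive means inhibition over the cutoff but images rejected on review; inactive means inhibition not above the cutoff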
INS promoter inh cell count = also measured in INS promoter inh; calls as there; normalized cell count, %; measured here: cell count, toxicity; reference of the scale not given here;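 cells exposed to compound for 48 h; stained nuclei by imaging scaled within each plate; lower means fewer cells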
HSV replic up primary fold = further read-out of HSV replic up, marked with its call; fold increase; compound at 10 µM; measured here: primary screen fold increase 10 uM; tested in PC3 cells;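 GFP signal in the first replicate; 1 = infected wells without compound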
Numbers without * were called inactive; i = inactive; ? = inconclusive; . = not tested or not shown; [ ] = dose if it differs, or a comment. The order is random; overall some 1.1% were active at least once.

Compound	PKD1 inh	INS promoter inh	HSV replic up	HSV replic up primary fold	RGS16-Gao	INS promoter inh cell count	GALR2 agonist
Cc1ccc2nc(C)cc(C(=O)OCC(=O)Nc3c(C)n(C)n(-c4ccccc4)c3=O)c2c1	5.3	0.0	i	0.98	104.1	146.7	.
CSc1nc2ccc3nc(NC(=O)c4ccc(C)cc4)sc3c2s1	-4.5	.	.	.	93.2	.	-2.7
CCN1CCN(C(C(=O)NC2CCCC2)c2cc3c(cc2[N+](=O)[O-])OCO3)CC1 (stereo unspecified)	-4.6	-6.7	i	0.9	145.5	84.9	.
CN(C)c1ccc(NC(=O)c2ccc3c(c2)nnn3C)cc1	0.7	15.8	i	0.83	97.3	91.7	.
COc1cc(NC(=O)COC(=O)c2cc(S(=O)(=O)N3CCCCC3)ccc2Cl)c(C)cc1[N+](=O)[O-]	-2.6	23.1	i	0.96	100.6	115.6	-1.8
Cc1cc(C(=O)Cn2nnc3ccccc3c2=O)c(C)n1Cc1cccs1	18.7	2.8	i	0.88	98.4	172.8	-2.4
Cc1cccc(-n2ccnc2SCC(=O)Nc2nccs2)c1C	-6.0	.	i	1.14	102.9	.	-1.2
CS(=O)(=O)c1sc(C#N)c2c1C(=O)CC(c1ccccc1)C2 (stereo unspecified)	.	.	i	0.59	96.4	.	.
CC(C)[C@H](NC(N)=O)C(=O)Nc1ccc(Oc2ccccc2)cc1	-2.1	14.3	i	0.85	98.4	61.9	.
CCc1cc(=O)oc2cc(OCC(=O)N3CCCc4ccccc43)ccc12	3.3	-36.4	i	1	118.6	119.7	-3.0
O=C(NCC1COc2ccccc2O1)c1ccccc1 (stereo unspecified)	-11.9	-257.1	i	1	99.2	77.9	-2.6
O=C(NCc1ccc2c(c1)OCO2)c1ccc(COc2cc(Cl)ccc2Cl)o1	-9.5	.	i	0.96	101.5	.	-0.6
CCCCCC(=O)NC(CC(=O)OC)c1ccc2c(c1)OCO2 (stereo unspecified)	-2.3	.	i	1.1	103.5	.	.
CC(=O)Oc1ccc2c(c1)Oc1cc(OC(C)=O)ccc1C21OC(=O)c2ccccc21	-37.4	.	?	.	888.2*[activator]	.	-1.5
COc1cc(OC)cc(-c2nc3ccccc3c(=O)n2OC(=O)c2ccccc2C)c1	-12.1	27.8	i	0.92	107.5	75.3	-0.5
CSc1nc(-c2ccc(C)cc2)nc(C(Cl)Cl)n1	3.1	12.0	.	.	100.0	105.1	-2.0
CC(C)C(=O)Nc1sc2c(c1-c1nc3ccccc3[nH]1)CCCC2	-8.8	11.4	i	1.12	103.0	116.0	-0.8
Cc1ccc(NC(=O)CSc2ccc(C(N)=O)cc2[N+](=O)[O-])cc1C	-2.8	.	i	0.98	101.1	.	.
C=CCNc1ncnc2sc(SC)nc12	.	.	i	0.79	101.6	.	.
CCNC(=S)NNC(=O)c1ccccc1OC(F)F	-10.5	15.5	i	1.01	104.8	96.1	-1.2
O=c1[nH][nH]c(C(F)(F)F)c1/C=N/N1CCOCC1	-5.8	.	i	1.06	98.7	.	.
Cc1ccc(-c2cc(C(=O)Nc3nn[nH]n3)c3ccccc3n2)cc1	11.3	-7.7	i	0.9	101.3	80.6	-3.7
CCOCCCNCC(=O)NCC1CCCCC1	3.6	.	i	0.98	99.9	.	.
C=CCSc1nc(C)cc(C(=O)OCC)c1C#N	.	.	i	0.95	89.3	.	.
CCNc1sc(S(C)(=O)=O)nc1S(=O)(=O)c1ccc(Cl)cc1	1.2	.	i	0.92	100.5	.	.
COc1cc(/C=N/Nc2nc(Nc3ccccc3)nc(N3CCCCC3)n2)ccc1OCC(=O)O	4.8	44.4	i	1	108.0	87.8	.
Cn1c(=N)n(CC(O)c2ccco2)c2ccccc21 (stereo unspecified)	0.0	-18.2	i	0.81	101.2	58.9	-2.0
CCN(CC)S(=O)(=O)c1ccc(C)c(NC(=O)CSc2nc3ccc(C)cc3[nH]2)c1	2.7	-30.2	i	0.78	60.2	109.9	-0.3
O=C(CNC(=S)N(CCCN1CCOCC1)Cc1cccs1)N1CCCCCC1	-4.1	-33.3	i	0.9	105.5	107.5	.
COC(=O)Cn1c(=NC(=O)CSCC(=O)Nc2cc(C)on2)sc2ccccc21	.	.	i	1.02	107.4	.	.

7 entries out of the list, sorted by molecular weight, falling:
Compound	PKD1 inh	INS promoter inh	HSV replic up	HSV replic up primary fold	RGS16-Gao	INS promoter inh cell count	GALR2 agonist
COc1cc(/C=N/Nc2nc(Nc3ccccc3)nc(N3CCCCC3)n2)ccc1OCC(=O)O	4.8	44.4	i	1	108.0	87.8	.
CCN(CC)S(=O)(=O)c1ccc(C)c(NC(=O)CSc2nc3ccc(C)cc3[nH]2)c1	2.7	-30.2	i	0.78	60.2	109.9	-0.3
O=C(CNC(=S)N(CCCN1CCOCC1)Cc1cccs1)N1CCCCCC1	-4.1	-33.3	i	0.9	105.5	107.5	.
O=c1[nH][nH]c(C(F)(F)F)c1/C=N/N1CCOCC1	-5.8	.	i	1.06	98.7	.	.
C=CCSc1nc(C)cc(C(=O)OCC)c1C#N	.	.	i	0.95	89.3	.	.
Cn1c(=N)n(CC(O)c2ccco2)c2ccccc21 (stereo unspecified)	0.0	-18.2	i	0.81	101.2	58.9	-2.0
CCOCCCNCC(=O)NCC1CCCCC1	3.6	.	i	0.98	99.9	.	.

Going on with the list.
Compound	PKD1 inh	INS promoter inh	HSV replic up	HSV replic up primary fold	RGS16-Gao	INS promoter inh cell count	GALR2 agonist
COc1cccc(NC(=O)Nc2ccc3c(c2)nnn3C)c1	-1.9	38.9	i	1.15	103.1	152.9	-1.8
COc1cc(O)c(C(CCN2CCCC2)c2ccc3c(c2)OCO3)c(OC)c1 (stereo unspecified)	.	.	i	0.79	98.9	.	.
c1ccc(CCSc2ncnc3nc[nH]c23)cc1	-9.1	.	i	0.94	109.2	.	-0.7
CC(=O)N1CCc2cc(S(=O)(=O)CCC(=O)N3CCc4ccccc4C3)ccc21	-4.6	-9.7	i	0.96	101.1	107.9	-2.8
O=C(Nc1nnc(Cc2ccc(Cl)cc2)s1)C1CCCO1 (stereo unspecified)	-4.8	36.8	i	0.83	90.5	118.0	.
CCCCNC(=O)CCC(=O)Nc1ccc2nc(N3CCN(C)CC3)cc(C)c2c1	-2.2	.	i	0.87	97.2	.	.
N/C(=N\OC(=O)c1ccco1)c1ccccc1	-3.1	33.3	i	0.85	103.5	86.5	-2.0
CN(C)S(=O)(=O)c1cccc(NC(=O)c2ccc3nccnc3c2)c1	.	.	i	0.86	101.6	.	.
O=C(Nc1ccon1)c1ccc(N2CCCCC2)c([N+](=O)[O-])c1	-1.3	.	i	1.06	102.0	.	.
COCCCN1C(=O)C(O)=C(C(C)=O)C1c1ccccn1 (stereo unspecified)	-1.2	13.8	i	0.98	99.2	48.2	-1.4
COc1cc2c(cc1O)C(Cc1ccc(O)cc1)[N+](C)([O-])CC2 (stereo unspecified)	.	.	i	1.11	98.0	.	.
O=C(NCCC1=CCCCC1)C(=O)NCC(c1ccco1)N1CCN(c2ccccc2)CC1 (stereo unspecified)	-6.1	-20.7	i	0.93	100.8	96.3	-1.2
Cc1ccc(C)c(SCC(=O)OCC(=O)c2ccco2)c1	1.4	-27.3	i	1.24	100.1	138.2	-0.8
CCOC(=O)c1sc(NC(=O)c2cc3n(n2)C(C(F)(F)F)CC(c2ccccc2)N3)c(C(=O)OCC)c1C (stereo unspecified)	-4.1	-45.5	i	1.19	94.9	70.6	-1.6
CC1CCCCN1S(=O)(=O)c1ccc(S(=O)(=O)N(Cc2ccccc2)Cc2ccco2)cc1 (stereo unspecified)	-4.8	50.0	i	0.95	66.5	99.5	0.8
CC(C)(C)NC(=O)NC(=O)COC(=O)c1cccc(F)c1	-5.5	-64.3	i	0.86	87.8	85.1	-0.8
CC(CC(=O)Nc1nc2ccccc2[nH]1)c1ccccc1 (stereo unspecified)	1.7	0.0	i	0.98	96.3	128.8	0.6
CCCc1ccc(-c2ccc(/C=C/C(=O)O)cc2)nc1	-8.2	.	i	0.99	118.6	.	0.9
O=C(CSc1nnnn1C1CCCCC1)N1CCN(C(=O)c2ccco2)CC1	2.4	-18.5	i	0.97	105.2	95.0	.
CC(=O)N(\C=C/C=C/C=C1\Sc2ccccc2C1=O)c1ccccc1	-4.7	-123.5	i	1.14	116.2	102.7	.
O=C(Nc1cccc(C(=O)O)c1)/C(=C/c1ccc([N+](=O)[O-])cc1)NC(=O)c1ccccc1	-1.4	.	i	0.99	107.9	.	.
CCn1c(SCC(=O)NCc2ccc3c(c2)OCO3)nnc1-c1c[nH]c2ccccc12	-9.7	29.0	i	0.98	72.7	54.2	2.0
COc1ccc(CNc2oc(C)nc2C#N)cc1	2.2	54.2	i	1.04	117.0	106.0	-1.4
NS(=O)(=O)c1ccc(NCc2c(F)cccc2Cl)cc1	-12.2	-33.3	i	1.07	91.0	89.9	-2.9
COCCNc1nc2nonc2nc1N1CCCC1c1nccs1 (stereo unspecified)	1.4	.	i	1.25	80.2	.	.
O=c1[nH]c(N2CCCCCC2)nc2ncn(Cc3ccccc3)c12	.	.	i	0.9	100.2	.	.
CC1CN(C2CCCCC2)c2nc3c(c(=O)n(C)c(=O)n3C)n2C1 (stereo unspecified)	-10.5	11.1	i	1.04	96.3	100.4	-1.0
Cc1cc(N2C(=O)C3C4C=CC(C4)C3C2=O)ccc1Br (stereo unspecified)	-19.8	43.2	i	1.1	100.3	114.1	-0.8
CCOC(=O)N1CCN(Cc2nc3c(c(=O)n(C)c(=O)n3C)n2Cc2ccccc2C)CC1	-8.3	.	i	0.74	105.1	.	-2.2
CN1C(=O)CC(N2CCN(C(c3ccccc3)c3ccccc3)CC2)C1=O (stereo unspecified)	-5.5	-90.0	i	0.957	102.6	122.5	-0.7
O=C(CNC(=O)c1cccs1)NC1=NCCS1	-7.8	52.4	i	0.89	99.8	69.2	-1.6
Cc1cc(C)nc(NC(=NCCc2c[nH]c3ccccc23)NC(=O)Nc2ccc(Cl)c(Cl)c2)n1	-0.7	-36.1	i	0.83	13.0*	89.5	-0.6
CCS(=O)(=O)Nc1ccc(C2=NN(S(C)(=O)=O)C(c3cccs3)C2)cc1 (stereo unspecified)	-6.8	-106.2	i	0.96	95.8	96.7	.
N#Cc1c(C(F)(F)F)cc(-c2ccccc2)nc1SCC(=O)Nc1sc2c(c1C#N)CCC2	-3.9	-143.3	i	1.12	97.8	93.2	-1.4
Nc1cc(=O)[nH]c(=O)n1Cc1ccco1	-3.6	8.6	i	0.84	92.1	85.3	-1.5
Cc1ccc(C(C)NC(=O)Cn2nc(C)c([N+](=O)[O-])c2C)cc1 (stereo unspecified)	7.2	.	i	0.92	99.2	.	-0.8
CCN(CC)Cc1c(-c2ccccc2)[nH]c2ccc(C)cc2c1=O	-13.2	33.3	i	1.1	409.1	141.9	-2.0
COc1ccc(Cl)cc1NC(=O)COC(=O)/C=C/c1c(C)nn(C2CCS(=O)(=O)C2)c1Cl (stereo unspecified)	-5.4	0.0	i	0.99	103.3	113.0	-2.0
C/C(=N/NC(=O)CNC(=O)c1ccccc1F)c1ccc2c(c1)CCCC2	9.4	.	i	0.75	110.4	.	.
